Assay outcomes as filed in PubChem.
RanGTP-Imp inh = inhibitors of RanGTP-importin-beta interaction, primary screen, biochemical, FRET, CFP-Ran, YFP-importin-beta, homogeneous; cell-free CFP-Ran/YFP-importin-beta FRET ratio; inhibition, % (concentration not given with the values); AID 2216; hit rate 1.1% among 300,000;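 active = most replicates above 15%; inconclusive = exactly half above 15%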;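 also: 0% = DMSO wells and 100% = Ran loaded with GDP instead of GTP; wells of about 40 µL received 100 nL stock; the first replicate is given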
MLL AF4-AF9 inh = blocks AF4 peptide binding to human AF9 | P42568 | AlphaScreen, biotin-AF4 peptide binding to FLAG-AF9 | inhibition, % at 10 µM | hit rate 0.47% among 350,000;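 active = every replicate reaching a set inhibition limit, whatever the replicate mean, cut at about 25% in these data; inconclusive = mean inhibition reaches that limit but some replicates miss it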;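 also: 0% = plate neutral control median and 100% = total signal loss; the record names both 10 and 1 µM as test concentration; the first replicate is given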
Target sequence (P42568 whole entry, looked up): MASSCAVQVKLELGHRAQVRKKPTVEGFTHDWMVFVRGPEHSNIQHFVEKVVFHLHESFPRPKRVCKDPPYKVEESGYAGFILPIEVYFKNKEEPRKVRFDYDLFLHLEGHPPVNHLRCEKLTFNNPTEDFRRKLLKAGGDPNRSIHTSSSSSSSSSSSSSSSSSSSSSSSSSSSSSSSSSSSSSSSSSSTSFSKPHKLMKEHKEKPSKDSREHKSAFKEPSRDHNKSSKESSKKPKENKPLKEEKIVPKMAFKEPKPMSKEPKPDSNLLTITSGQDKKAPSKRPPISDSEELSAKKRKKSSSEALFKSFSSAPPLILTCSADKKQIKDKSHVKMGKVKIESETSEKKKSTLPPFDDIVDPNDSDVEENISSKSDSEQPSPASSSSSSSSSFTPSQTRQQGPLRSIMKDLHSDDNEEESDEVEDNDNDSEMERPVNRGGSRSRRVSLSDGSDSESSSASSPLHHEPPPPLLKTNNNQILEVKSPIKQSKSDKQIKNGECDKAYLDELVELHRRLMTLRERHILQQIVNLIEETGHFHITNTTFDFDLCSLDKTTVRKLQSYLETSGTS
A1 inh = inhibitors of the anti-apoptotic protein A1, read as caspase activation; MEF A1-2A-BIM cells, Caspase-Glo 3/7 luminescence, 3 h; percent of clofoctol response, vehicle zero; caspase activation, % (no concentration beside the values); hit rate 0.066% among 330,000;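 active = over half of replicate activation scores above 10%, or exactly half above 10 with the replicate mean above 10; inconclusive = replicate mean below 10 yet half the replicates above 10; inactive = over half of replicates below 10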;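 also: wells of about 30 µL received 50 nL stock; many hits fall short of the cut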
LANA-H2B inh = blocks KSHV LANA binding to histone H2A/H2B; Q9QR71; cell-free LANA-H2A/H2B peptide, fluorescence polarization; inhibition, % (test concentration not listed); hit rate 0.6% among 320,000; in the data active = inhibition mostly above about 10%, no sharp cut-off; inactive = mostly below about 6.7%;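 also: stock transfer was 7.5 nL into about 10 µL; 0% = median of vehicle wells and 100% = median of positive control wells; one replicate is shown; the record names a cut of 25% in any replicate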
Vif A3G = HIV-1 Vif–A3G interaction blockers – biochemical, TR-FRET, GST-Vif 1-94, biotin-A3G peptide, dose response retest, primary screen (AID 1117319); TR-FRET GST-Vif / biotin-A3G peptide binding; higher % means a stronger effect; test concentration not given here; strong numbers were not always called active; inhibition, %; hits with a dose series show IC50 in µM; hit rate 0.57% among 260,000;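 active = above the screen mean plus three standard deviations and confirmed in dose response; inconclusive = results disagree or hit not tested in dose response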;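 also: Vif residues 1-94 fused to GST binding biotinylated APOBEC3G peptide 110-148; 0% = full assay without inhibitor and 100% = GST in place of GST-Vif; retest series ran down from 100 µM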
Beta cell apopt = beta cell apoptosis inhibition. INS-1E cytokine-induced death, ATP luminescence, 48 h; percent of positive-control rescue, neutral wells zero. protection from apoptosis, % (concentration not given with the values). hit rate 0.8% among 300,000. AID 435005;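 active = all replicates at 75% or more, or half of them and the mean; inconclusive = half reach 75% but not the mean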;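 also: 0% = cytokine-treated negative control wells and 100% = positive control rescue; higher means more ATP so stronger rescue from cytokine killing; wells of about 40 µL received 100 nL stock; the first replicate is given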
Calb FLC = affects C. albicans growth with fluconazole; C. albicans CaCi-2 (fluconazole-resistant clinical isolate) + fluconazole, Alamar Blue growth, 48 h; growth inhibition, % (no concentration beside the values); hit rate 0.57% among 300,000; AID 1979;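 active = most replicates above 75%; inconclusive = exactly half above 75%; inactive = most below 75%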;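 also: all wells also contain fluconazole at 8 µg/ml as a sub-toxic cotreatment; 0% = median of DMSO wells and 100% = median of geldanamycin control wells; wells of about 8 µL received 7.5 nL stock; the first replicate is given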
T cruzi repl = T. cruzi replication inhibition | T. cruzi beta-gal in NIH3T3, luminescence, 90 h | inhibition, % (concentration not given with the values) | hit rate 1.4% among 300,000;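 active = mean inhibition across valid replicates above about 55%, limit read from the data; inconclusive = mean below that limit but half or more replicates reach it; inactive = mean below it, under half of replicates reach it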;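 also: signal also drops with host cell toxicity which is not excluded here; 0% = plate median of DMSO wells and 100% = zero luminescence signal; higher percent means less beta-gal luminescence so fewer parasites; stock transfer was 50 nL into about 50 µL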
* marks the source's active call; other numbers are inactive results; u = inconclusive; x = no result given. Hits appear at their usual frequency. Share with any hit: about 4.3%.

SMILES	RanGTP-Imp inh	MLL AF4-AF9 inh	A1 inh	LANA-H2B inh	Vif A3G	Beta cell apopt	Calb FLC	T cruzi repl
Cc1ccc(Cl)cc1NC(=O)c1ccc(NC(=O)CCC(=O)O)cc1	0.3	-4.6	-0.2	-2.8	10%	0	26	-16
COc1ccc(/C=C2\SC(=O)N(CC(=O)Nc3ccccc3O)C2=O)cc1OC	-2.5	2.7	1.3	1.4	-2%	0	-2	0
Cn1c(SCc2cccc(F)c2)nnc1-c1ccncc1	1.1	-11	0.3	-0.6	13%	1	4	3
CC1CCN(Cc2nc3c(c(=O)n(C)c(=O)n3C)n2CCCc2ccccc2)CC1	2.6	x	0.2	1.5	-3%	3	18	19
O=C(Nc1cccc(NC(=O)c2cccs2)c1)c1cccnc1	4.8	1.0	0.0	3.1	4%	-6	13	-11
COc1cccc(C2C(C(=O)Nc3nc4ccccc4s3)=C(C)NC3=C2C(=O)CC(C)(C)C3)c1OC (stereo not given)	69*	x	-1.6	-0.1	-6%	6	1	9
CCOC(=O)C1CCN(C(=O)c2cccc(NC(=O)C(CC)CC)c2)CC1	u	x	1.1	-0.4	-4%	x	1	-5
Cc1ccc(NC(=O)CN2C(=O)NC3(CCCCCCC3)C2=O)cc1C	x	-5.5	-0.8	-0.5	-8%	-1	x	x
Cc1cc(O)cc(=O)n1Cc1ccco1	-0.4	x	0.4	0.7	3%	-7	7	-4
CC(C)(C)OC(=O)NCCCCCc1nnc(SCC(N)=O)o1	5.4	x	0.0	4.1	-1%	x	-8	-25
CCOc1ccc(-n2c(C)nc3cc(C(=O)NCCCN4CCOCC4)ccc32)cc1	8.2	x	0.3	-1.8	-2%	-1	-1	13
Cc1csc(NC(=O)CSc2nccn2Cc2ccco2)n1	-2.7	2.5	0.0	1.2	2%	1	-5	-5
COc1ccc(C(=O)NCc2csc(-c3cccs3)n2)cc1	2.7	1.2	-0.2	4.2	x	-3	20	x
COCC(=O)Nc1c(C(=O)Nc2cccc(OC)c2)oc2ccccc12	2.6	x	-2.0	-12	4%	-4	0	21
CC(=O)c1ccc(NC(=O)c2cc3nc4c(c(C(F)(F)F)n3n2)CCCC4)cc1	-1.9	x	x	x	26%	x	11	12
Cc1nc(C)c(C(=O)NCc2ccc(Cl)cc2)o1	-3.8	6.5	0.3	-0.6	14%	-4	6	-20
CC1Cc2ccccc2N1C(=O)c1ccc(Br)o1 (stereo not given)	-1.5	4.4	-7.2	-1.7	-2%	16	1	-3
COc1ccc(CCn2c(-n3nc(C)cc3C)nc3c2c(=O)[nH]c(=O)n3C)cc1	2.5	x	1.4	-2.3	x	x	7	-13
Cc1ccc(C(=O)NCc2ccc(N3CCN(C)CC3)cc2)cc1C	-1.8	0.8	-0.8	-0.8	20%	x	16	11
O=C(c1ccc(F)cc1)C(CCCCCC(CN1CCOCC1)C(=O)c1ccc(F)cc1)CN1CCOCC1 (stereo not given)	1.9	x	-0.6	-2.1	-9%	-7	14	11
CN(c1ncc(C(F)(F)F)cc1Cl)N1C(=O)c2cccc([N+](=O)[O-])c2C1=O	-1.8	-2.4	-0.6	-7.2	x	-8	4	-10
CCn1c(=O)cc(SCC(=O)NCCCN2CCN(c3ccccc3F)CC2)c2ccccc21	2.1	3.1	1.7	4.8	23%	-7	-7	22
Cn1cnc([N+](=O)[O-])c1SCC(O)CCl (stereo not given)	-0.9	-0.8	0.0	-2.4	-5%	-1	18	-13
Cc1cc(C)cc(NC(=O)CSc2n[nH]c(-c3cccnc3)n2)c1	0.2	1.9	0.0	1.4	x	7	1	-4
O=C(COC(=O)c1ccc(F)cc1Cl)NC1CCCCCCC1	x	3.1	0.0	4.5	1%	-4	x	x
The list goes on:
SMILES	RanGTP-Imp inh	MLL AF4-AF9 inh	A1 inh	LANA-H2B inh	Vif A3G	Beta cell apopt	Calb FLC	T cruzi repl
CCN(CC(=O)Nc1ccc(NC(C)=O)cc1)C(=O)CCCc1nc2ccccc2c(=O)[nH]1	0.4	-7.0	-0.6	-5.2	0%	2	5	-3
Cc1cc(=O)n2c(n1)OC(CO)C2 (stereo not given)	1.4	1.5	0.1	0.0	0%	x	-3	-17
O=C(CSc1ccc(-c2cccc([N+](=O)[O-])c2)nn1)N1CCCCC1	-1.0	-7.0	-1.8	7.1	1%	x	4	-4
CCC(C)(C)n1nnnc1C(c1ccccc1F)N1CCN(C(=O)c2ccco2)CC1 (stereo not given)	2.7	1.5	0.7	2.5	x	3	-5	5
COC(=O)c1ccc(NC(=O)c2ccc(CN3CCOCC3)cc2)cc1	5.4	x	0.4	0.0	-4%	-4	28	-6
Cc1ccc(/C(N)=N/OC(=O)CCC2CCCC2)cc1	-0.5	-0.3	-0.5	-9.0	1%	-14	-2	-25
Cc1ccc(C(=O)N2CCN(c3ccc(NC(=O)COc4ccccc4C)cc3)CC2)cc1	1.1	1.4	0.0	3.1	-8%	13	38	10
O=C(Cn1nnc2ccccc21)N1CCCCC1	-3.6	x	-0.2	2.5	0%	0	-9	-1
COc1ccccc1CNC(=O)c1cc(=O)c2ccccc2o1	1.9	1.7	-0.6	1.1	-8%	0	-13	16
Cc1cc(C)c(C(=O)NCCCN2CCOCC2)c(C)c1	4.9	2.1	0.9	2.2	-1%	x	2	-3
C[C@]12CCC(=O)CC1CCC1C2CC[C@@]2(C)C1CC[C@@]21CCO1 (stereo not given in full)	-0.4	0.9	u	5.9	3%	-1	-1	0
O=C(NCCN1CCOCC1)/C(=C\c1ccccc1F)NC(=O)c1ccccc1	1.9	0.3	0.1	-2.0	x	-11	x	-2
CC(=O)N1c2ccc(S(=O)(=O)NCCC(=O)Nc3ncccc3C)cc2CC1C (stereo not given)	1.0	0.3	0.0	0.0	0%	x	-7	-13
COCCn1nnnc1CN1CCN(C(=O)c2ccco2)CC1	4.6	-7.5	0.5	1.2	5%	-2	-7	-5
CCCNC(=O)OC[C@H]1O[C@H](CCO/N=C(\C)CCN2CCc3nc(-c4ccccc4)c(-c4ccccc4)cc3C2)C=C[C@@H]1Oc1ccc(OC)cc1	-1.5	x	-1.0	0.8	u	11	-7	39
CCN1CCN(c2nc(Nc3ccc(NC(C)=O)cc3)nc(Nc3ccc(NC(C)=O)cc3)n2)CC1	1.5	7.4	0.6	3.4	16%	1	-1	-3
Cc1n[nH]c(=O)nc1NCc1ccccc1	x	x	1.4	-0.3	17%	-2	-25	-12
O=S(=O)(c1ccc(Cl)c(C(F)(F)F)c1)N1CCN(CC(O)COc2ccccc2F)CC1 (stereo not given)	-2.2	-0.8	-0.1	-0.1	x	-1	-2	19
CCCC(=O)Nc1cc(-c2nn(C)c(=O)c3ccccc23)ccc1OC	-2.3	x	-0.6	0.6	-2%	6	-7	-6
CCC(C)(C)NC(=O)C(c1ccc(C)cc1)N(Cc1cccs1)C(=O)c1ccc2c(c1)OCCO2 (stereo not given)	2.7	x	0.6	1.6	-1%	6	-15	24
O=[N+]([O-])c1ccc(Sc2cc[n+]([O-])c3ccccc23)c([N+](=O)[O-])c1	6.3	0.9	0.8	-5.4	8%	x	2	-25
NC(=S)Nc1ccc2cn[nH]c2c1	-1.0	-3.8	0.0	3.4	0%	2	-3	-2
COc1ccc(NS(=O)(=O)c2ccc(C)c(C(=O)NC3CCN(Cc4ccccc4)CC3)c2)cc1	u	0.7	0.5	-0.2	x	3	-9	39
COc1ccc(Cn2nnnc2C(c2ccc(N(C)C)cc2)N2CCC(C(N)=O)CC2)cc1 (stereo not given)	-175	4.0	0.3	3.5	-6%	-9	27	-4
Cc1ccc(C)c(OCc2cc(C(=O)N3CCN(C(=O)c4ccco4)CC3)no2)c1	1.1	-2.4	-0.5	0.4	x	5	-6	7
Further records follow.
SMILES	RanGTP-Imp inh	MLL AF4-AF9 inh	A1 inh	LANA-H2B inh	Vif A3G	Beta cell apopt	Calb FLC	T cruzi repl
O=C(CN1CCN(c2ccccc2)CC1)Nc1ccccc1Sc1ccccc1	6.6	x	-0.9	4.8	x	2	7	9
COc1ccc(/C=N/NC(=O)Cc2cccs2)cc1	-3.2	x	-1.3	3.1	0%	-2	3	3
CCOC(=O)C(=CNc1ccc(C(F)(F)F)cc1)C(=O)OCC	2.7	-2.3	0.4	7.3	5%	6	7	23
CC1(C)N([O-])c2cc([N+](=O)[O-])ccc2[N+]1=O	x	-4.3	0.5	-2.9	9.7µM*	-5	x	x
NC(=O)c1cc(S(=O)(=O)N2CCCCC2)cs1	-0.5	2.6	0.9	1.2	x	-2	2	4
CCCCCCCNc1cccc(C)c1	-1.7	-4.8	1.2	-2.6	3%	2	-1	-17
CCN1CCN(C(=S)Nc2ccc3nc4n(c(=O)c3c2)CCCCC4)CC1	-1.0	-0.5	-0.4	-3.3	3%	-7	-16	2
O=C(O)CC(NC(=O)C1CCCCC1)c1ccc(OC2CCCC2)cc1 (stereo not given)	-3.0	-2.8	-0.4	2.7	6%	0	-1	-20
O=C(NC1CC1)c1cccc(NC(=O)c2cnn(-c3ccccc3)n2)c1	x	-0.2	-1.4	-1.6	x	-3	x	x
CC(C)(C)SCCNC(=O)c1ccccc1	4.0	x	-0.7	x	-2%	-6	-6	-7
CCOC(=O)c1csc(NC(=O)CC2CCCC2)n1	0.7	0.6	-0.4	2.8	-1%	-20	-1	1
COc1ccccc1C/C(N)=N/OC(=O)COc1ccc(C)cc1	-0.1	3.0	-1.8	2.6	x	-7	-16	-6
Cn1nccc1C(=O)OCC(=O)Nc1ccc(S(N)(=O)=O)cc1	u	12	-0.4	6.4	x	x	0	-12
O=C(c1cccc(N2C(=O)c3ccccc3C2=O)c1)N1CCCCCC1	-3.7	-1.0	-0.6	3.5	8%	0	-14	0
COc1ccc(OCC(=O)NCCS(=O)(=O)N2CCN(c3ccc(F)cc3)CC2)cc1	3.3	-3.1	0.0	0.9	x	x	0	4
COc1ccc(CNC(=O)CN(c2ccc(C(C)=O)cc2)S(=O)(=O)c2ccc(C)cc2)cc1OC	x	-0.2	0.8	1.0	2%	-6	x	x
CCCC1(C(=O)OCC)NC(c2cc(OC)c(OC)c(OC)c2)C2C(=O)N(CC)C(=O)C21 (stereo not given)	5.2	x	0.4	5.1	6%	0	-1	1
N/C(=N\OC(=O)c1cc(-c2ccccc2)nc2ccccc12)c1ccc(Cl)cc1	4.8	x	0.1	0.6	-1%	3	17	-11
Cc1cccnc1NC(=O)c1ccccc1NC(=O)C(C)(C)C	-0.9	x	-0.4	-2.6	-7%	-2	-2	9
Cc1cc(C)cc(NC(N)=S)c1	u	-12	1.3	3.7	x	-1	-4	-4
COc1ccc(Nc2ccc3c(c2)=NC2(CCCCC2)[N+]=3[O-])cc1	0.4	x	0.2	1.0	u	104*	76	58*
CC(C)N(Cc1cnn(C)c1)Cc1nc(-c2ccc(Cl)cc2)no1	-2.7	-1.3	0.1	-0.2	x	-4	-58	4
O=c1[nH]c(/C=C/c2ccc(Br)cc2)nc2ccccc12	2.4	-1.5	-12	-1.7	-1%	7	-7	7
CC(C(=O)Nc1ccccc1Br)c1ccc([N+](=O)[O-])cc1 (stereo not given)	4.6	-0.2	0.6	-6.4	-5%	4	4	-4
CCN(CC)S(=O)(=O)c1ccc(N/N=C/c2ccc(O)cc2)nc1	-1.1	3.2	0.2	-0.1	-10%	4	21	-41
CCN(CCN(C)C)C(=O)C1CCN(S(=O)(=O)c2c(C)noc2/C=C/c2ccccc2F)CC1	0.5	11	-0.5	-1.7	x	-6	7	27
